# Source: PubChem
# Marburg entry inh – blocks Marburg virus binding to or entry into cells; Marburg virus pseudotyped entry inhibition, cell reporter; control for the full effect not named in the record; about a third of the inactives were read at about 46 µM; Potency, µM (series often up to 37.8 µM), for inactives: at the highest dose activity change, negative = inhibition, usual class: inhibitors; 1.8% of 300,000 active; active = well fitted inhibition curve with a large enough effect; inconclusive = small, poorly fitted or top-dose-only effect, or effect the other way; inactive = flat fitted curve, though single readings scatter; tested in HEK293 cells; about a fifth of its hits are not listed in these tables; further: on the % scale 0 is the no-effect control and ±100 the full control effect; luciferase read-out
# StopGo reporter – FMDV 2A StopGo reporter, luciferase signal. AID 1159524. 1.2% of 410,000 active. human cells with a luciferase reporter of 2A StopGo recoding; control for the full effect not named in the record. Potency, µM (titrated, usually from 57.9 µM), inactives show top-dose signal change, negative = less light; active = well fitted falling curve with a large enough effect; inconclusive = small, poorly fitted or top-dose-only effect; inactive = no such curve, though single readings can be large or run the other way; tested in HEK293T cells; further: on the % scale 0 is the no-effect control and ±100 the full control effect; nearly all actives have a fitted effect of over 45% in size; luciferase light after 4 h
# NS1 inh – blocks influenza NS1 protein function; S. cerevisiae slowed by influenza A NS1, growth recovery by OD600; 0.4% of 270,000 active; Potency, µM (highest dose often 46.1 µM), for inactives: at the top dose activity, positive = more growth; AID 2326; further: actives are rising curves; nearly all actives have a fitted effect of over 50% in size
#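 Recovery from NS1-induced slow growth read by OD600 in budding yeast switched to galactose assay medium (pH 6.0, -URA) at 1:100 dilution. Compound 23 nl per well; the matching strain lacking NS1 serves as control.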
# RE007 growth inh – less growth of the S. pombe RE007 Vpr strain; S. pombe RE007 Vpr strain, BacTiter-Glo ATP luminescence, 24 h; control for the full effect not named in the record; Potency, µM (top dose mostly 92.2 µM), for inactives: at the top dose activity change, negative = less growth; 0.21% of 360,000 active; active = well fitted falling curve with a large enough effect; inconclusive = small, poorly fitted or top-dose-only effect; inactive = no such curve, though single readings can be large or run the other way;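 further: on the % scale 0 is the no-effect control and ±100 the full control effect; nearly all actives have a fitted effect of over 50% in size; the assay follows cell death caused by Vpr and the record does not say whether a fall means rescue or toxicity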
#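 Fission yeast RE007 carrying one integrated HIV-1 vpr copy, seeded at OD 0.01 in PMG+AL medium with 23 nL pinned compound. Grown 24 h at 30 degrees; viability read by BacTiter-Glo luminescence after 5 min.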
# Cruzain noTriton – cruzain (T. cruzi) inhibition without detergent; purified cruzain, Z-FR-AMC fluorescence, no detergent; Potency, µM, for inactives: max response, negative = inhibition, actives largely listed as inhibitors; 2.3% of 200,000 active; active means well fitted curve in the direction sought with a large enough effect; inconclusive means small, poorly fitted or top-dose-only effect, or another doubt; inactive means no such curve, though single readings can be large; an effect the other way counts as inactive or inconclusive;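 further: plate controls were enzyme without inhibitor for no effect and buffer without enzyme for full effect; nearly all actives have a fitted effect of over 40% in size; top concentration of the series not given in the record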
# Target sequence (P25779 123-467 limits assumed): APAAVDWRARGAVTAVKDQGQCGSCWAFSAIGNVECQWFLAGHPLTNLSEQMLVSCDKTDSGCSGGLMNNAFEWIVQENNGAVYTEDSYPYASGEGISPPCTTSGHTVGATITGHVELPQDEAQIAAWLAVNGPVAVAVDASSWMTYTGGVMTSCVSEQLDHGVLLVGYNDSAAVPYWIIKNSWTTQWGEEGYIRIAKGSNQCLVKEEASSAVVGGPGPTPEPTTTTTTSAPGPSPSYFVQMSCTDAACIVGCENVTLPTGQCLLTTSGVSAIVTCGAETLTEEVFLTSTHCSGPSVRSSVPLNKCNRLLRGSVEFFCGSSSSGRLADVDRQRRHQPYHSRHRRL
#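 Purified cruzain at 1.5 nM, pre-incubated 15 min with compound at room temperature in 100 mM sodium acetate pH 5.5, 5 mM DTT, 0.00005% Triton X-100. Reaction started with 2 uM Z-FR-AMC; AMC fluorescence increase over 60 s gives rate.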
# SARS PLP yeast – SARS-CoV PLP inhibition in yeast; 0.19% of 330,000 active; S. cerevisiae expressing SARS-CoV PLpro, growth rescue; control for the full effect not named in the record; Potency, µM (top dose mostly 32.9 µM), without a hit: at the highest dose activity, positive = growth rescue; further: 0% is about no effect; nearly all actives have a fitted effect of over 55% in size; growth read by luminescence after 48 h
# Cruzain inh Det – blocks cruzain activity in presence of Triton detergent | P25779 | purified cruzain, Z-FR-AMC fluorescence, 0.01% Triton | Potency, µM, inactives show max response, negative = inhibition, most hits filed as inhibitors | 0.43% of 200,000 active | AID 1478; active means well fitted curve in the direction sought with a large enough effect; inconclusive means small, poorly fitted or top-dose-only effect, or another doubt; inactive means no such curve, though single readings can be large; an effect the other way counts as inactive or inconclusive;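 further: plate controls were neutral wells for no effect and buffer without enzyme for full effect; nearly all actives have a fitted effect of over 40% in size; top concentration of the series not given in the record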
#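 Cysteine protease activity tested under reducing, mildly acidic conditions (100 mM sodium acetate pH 5.5, 5 mM DTT) plus 0.01% Triton X-100. Cruzain 1.5 nM; substrate Z-FR-AMC 2 uM; 15 min compound preincubation at room temperature.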
# LASV entry inh – Lassa virus entry inhibition; Potency, µM (highest dose often 37.9 µM), for the others: at the highest dose activity change, negative = inhibition, usual class: inhibitors; 1.2% of 300,000 active; AID 540256; Lassa virus pseudotype entry inhibition, cell reporter; control for the full effect not named in the record; active means well fitted inhibition curve with a large enough effect; inconclusive means small, poorly fitted or top-dose-only effect, or effect the other way; inactive means flat fitted curve, though single readings scatter; tested in HEK293 cells; further: on the % scale 0 is the no-effect control and ±100 the full control effect; nearly all actives have a fitted effect of over 50% in size; luciferase read-out
# * = called active by the depositor; ? = inconclusive; . = not tested or not shown; & = joins results of further samples; [ ] = dose if it differs, or a comment. Unless noted, the call rests on the fitted dose curve; in most records, active means well fitted rising curve with a large enough effect; inconclusive means small, poorly fitted or top-dose-only effect; inactive means no such curve, though single readings can be large or run the other way. Potency means the concentration at half of the fitted maximal effect.
SMILES,Marburg entry inh,StopGo reporter,NS1 inh,RE007 growth inh,Cruzain noTriton,SARS PLP yeast,Cruzain inh Det,LASV entry inh
Cc1cc(C)cc(N2C(=O)CC(Sc3ncn[nH]3)C2=O)c1 (stereo not given),?,-1.1%,-12.9%,-7.8%,.,-5.0%,.,6.7%[46.1 µM]
O=C1CC(=O)Nc2cc(S(=O)(=O)Nc3ccc(F)cc3Cl)ccc2N1,.,-6.4%&-15.0%,6.9%,-0.7%,0.6%,0.9%,0.3%,10.5%[46.1 µM]
CCOc1ccc(Br)cc1CNCc1cccnc1,.,-16.5%,9.6%,0.0%,.,-6.2%,.,.
COc1ccc(S(=O)(=O)N2CCOCC2)cc1NC(=O)C1CCN(S(=O)(=O)c2ccc(Cl)cc2)CC1,?,0.0%,.,-0.2%,.,.,.,-27.9%
CCOc1ccccc1N1CC(C(=O)NCCOc2ccccc2OC)CC1=O (stereo not given),-14.3%,-7.0%,2.0%,-12.6%,.,2.7%,.,10.6%
CCOc1ccc(NC(=O)NCC2CCN(c3ccc(OC)cc3)C2)cc1 (stereo not given),7.9%,15.2%,-4.4%,-3.4%,?,-1.7%,4.6%,-28.7%
CS(=O)(=O)N(Cc1ccccc1)c1ccc(C(=O)Nc2cccc(Cl)c2)cc1,.,0.0%,.,.,-14.3%,.,-7.1%,?
O=C(COc1ccc2c(c1)OCO2)Nc1ccccc1F,.,51.6%[activator],-6.3%,-21.9%,.,-1.0%,.,.
CN(C)c1cccc(C(=O)OCCCC(=O)c2ccc(F)cc2)c1,18.6%,14.4%,.,-17.0%,.,6.7%,.,-9.6%
CCc1cccc(N2C(=O)CS(=O)(=O)C23C(=O)N(Cc2ccc(F)cc2)c2ccc(C)cc23)c1 (stereo not given),.,-0.1%,.,.,?,.,-0.7%,?
CCOC(=O)N1CCN(C(=S)NC(=O)c2ccc(F)c(F)c2)CC1,-1.7%[46.1 µM],29.6%,1.4%,-8.6%,.,-0.4%,.,-9.8%
Cc1c(C)n(C)c2ccc(C(=O)NCCCN3CCOCC3)cc12,-11.5%[46.1 µM],13.9%,-0.2%,-7.1%,.,4.2%,.,3.8%[46.1 µM]
O=C(Nc1ccc(S(=O)(=O)Nc2ncccn2)cc1)c1cccc(Cl)c1,.,-16.6%,.,.,-6.4%,.,-0.7%,1.1%[46.1 µM]
Cc1ccc(S(=O)(=O)N2CCCCC2)cc1NC(=O)CSc1ccc2c(c1)OCCO2,?,0.0%,19.9%,-1.4%,-21.4%,?,-4.6%,-9.9%
C/C(N)=C(/C#N)C(=O)COC(=O)c1ccccc1Cc1ccccc1,-5.3%,18.4%,.,12.5%,.,-2.1%,.,-2.7%
CN(C)C(CNC(=O)CCCOc1ccccc1)c1ccco1 (stereo not given),15.4%,20.6%,-1.8%,-19.4%,-1.8%,3.3%,-2.8%,4.5%
COC(=O)Sc1nnc(-c2ccc(Br)cc2)o1,6.6%,.,-246.0%,.,-2.2%,-11.8%,3.2%,.
COc1ccc(C(=O)N/C(=C/c2ccco2)C(=O)N2CCCCCC2)cc1,24.9%[46.1 µM],12.4%,19.0%,-4.7%,.,-13.3%,.,-2.1%[46.1 µM]
CCCCn1c(-c2ccco2)nc2oc3ccccc3c(=O)c2c1=O,1.3%[46.1 µM],-11.6%,-5.2%,-13.5%,.,-0.4%,.,-6.7%
COc1ccc(CC(=O)NCc2nc3cccnc3n2Cc2ccccc2)cc1,.,-9.0%,.,.,0.7%,.,-2.7%,1.5%[46.1 µM]
CC(C)C(NC(=O)Cc1ccccc1[N+](=O)[O-])C(C)C,1.1%,-7.0%,-1.8%,-7.4%,0.1%,11.6%,-1.4%,-1.1%
Cc1cccn2c(=O)c(/C=C(\C#N)c3nc4ccccc4s3)c(Oc3ccc(F)cc3)nc12,22.7%[46.1 µM],?,.,.,-6.6%,.,-8.0%,-3.1%[46.1 µM]
CCOC(=O)Cc1[nH]nc2c1C(c1ccsc1)C(C#N)=C(N)O2 (stereo not given),-15.5%[46.1 µM],?,0.1%,1.3%,.,0.3%,.,23.8%[46.1 µM]
COc1ccc(CCNc2nc(-c3ccc(NC(C)=O)cc3)cs2)cc1OC,?,25.1µM*,.,-8.7%,.,-1.0%,.,?
COc1ccc(Br)cc1CNC(=O)c1cnc2sc(N3CCCCCC3)nn2c1=O,.,0.0%,.,.,7.1%,.,-4.8%,-20.0%[46.1 µM]
COc1ccc(Br)cc1S(=O)(=O)Nc1ncn[nH]1,11.3%[46.1 µM],-6.5%,5.0%,18.0%,.,3.2%,.,19.0%[46.1 µM]
COc1ccc(-c2ccc(SCC(=O)N3CCCC3)nn2)cc1OC,14.7%,4.4%,1.7%,-4.6%,-7.1%,0.3%,-2.6%,1.6%
COC(=O)c1ccc2c(=O)n(CCN3CCOCC3)c(=S)[nH]c2c1,2.1%,6.2%,-1.5%,-10.2%,-3.1%,1.0%,2.6%,-3.5%
O=C1CC(c2ccc3c(c2)OCO3)CN1 (stereo not given),1.6%,-7.0%,2.2%,31.6%,-0.4%,-2.0%,2.7%,17.9%
Oc1ccc2ccccc2c1C=NNc1ccccn1,5.62µM*,9.7%,.,?,.,.,.,?
COC(=O)/C=C1/S/C(=N/NC(=O)c2ccccc2)NC1=O,-4.2%,0.0%,-18.2%,0.0%,-3.2%,5.2%,0.5%,-6.3%
CC(Oc1ccccc1C(N)=O)C(=O)Nc1ccc(S(=O)(=O)N2CCCC2)cc1 (stereo not given),-8.5%[46.1 µM],-12.0%,.,-20.6%,.,1.7%,.,-16.5%
COc1ccccc1OCC(=O)N/N=C/C=C/c1ccc([N+](=O)[O-])o1,?,-27.4%,-49.2%,-10.3%,-12.9%,-38.6%,-9.1%,?
COc1ccc(CCNc2ncnc3c2cnn3-c2ccc(C)c(Cl)c2)cc1,.,-23.3%,.,.,-7.1%,.,0.3%,0.8%[46.1 µM]
CC(C)(C)c1ccc(C(=O)NCC(c2ccc(Cl)cc2)N2CCOCC2)cc1 (stereo not given),0.9%[46.1 µM],-13.4%,.,.,?,.,-0.5%,?
CCc1cc2c(=O)[nH]c(Cc3ccc(OC)cc3)nc2s1,29.4%,7.9%,3.1%,22.1%,5.3%,-11.9%,-2.5%,?
CC(C)(C)OC(=O)NCCCCCc1nnc(SCc2ccccc2F)o1,0.9%,?,-10.0%,4.5%,.,-0.9%,.,0.7%
CCc1ccc(NC(=O)Cn2cnc3sc(C)c(S(=O)(=O)N4CCOCC4)c3c2=O)cc1,?,-13.7%,9.0%,23.8%,.,4.0%,.,-10.7%[46.1 µM]
COc1cc(/C=N/NC(=O)c2ccc(O)cc2)ccc1OCC(=O)N1CC(C)OC(C)C1 (stereo not given),0.2%[46.1 µM],-1.3%,6.9%,-2.9%,.,1.7%,.,3.3%
Cc1ccc(S(=O)(=O)N2CCC[C@H]2C(=O)OCc2cc(=O)oc3cc(C)ccc23)cc1,7.4%[46.1 µM],18.9%,.,-4.0%,.,10.9%,.,8.9%[46.1 µM]
COC(=O)c1cc(C)sc1NC(=O)CN1CCN(C(=O)C2CCCO2)CC1 (stereo not given),?,-15.7%,-7.8%,-6.2%,.,3.3%,.,-27.0%
COc1cccc(-n2c(SCC(=O)Nc3cccc(C)c3)nc3c([nH]c4ccccc43)c2=O)c1,.,0.0%,.,.,31.6µM*,.,-0.5%,-21.8%[46.1 µM]
c1ccc2sc(SCc3ccc(-c4nnco4)cc3)nc2c1,?,1.3%,-14.5%,-7.7%,-4.1%,3.9%,-2.0%,11.2µM*
Cc1ccc2cc(C)c3nnc(SCC(=O)N4CCN(C(=O)c5ccco5)CC4)n3c2c1,-12.9%,.,-4.0%,-1.7%,-6.1%,0.9%,-6.2%,-11.4%
CCC(C)NC(=O)c1ccc(COc2ccccc2Cl)cc1 (stereo not given),-10.3%,-2.0%,-23.0%,-8.3%,-6.2%,-9.0%,1.4%,-0.2%
CN1CCN(C(=O)C2=C[C@H](c3csc4ccccc34)C[C@H](OCc3ccc(CO)cc3)O2)CC1,.,-15.5%,-2.5%,2.4%,.,0.5%,.,.
CN(c1ccccc1)S(=O)(=O)c1cccc(C(=O)OCC(=O)NCCCN2CCCC2=O)c1,-2.4%,-22.3%,-4.5%,-5.3%,.,0.5%,.,-2.2%
O=C1NC2(CCCCC2)Cc2ccccc21,9.9%,.,0.1%,-12.0%,-6.1%,3.4%,5.4%,15.6%
O=C(COc1ccc(Br)cc1F)NC1CCN(Cc2ccccc2)CC1,?,-2.0%,-12.3%,-7.6%,1.3%,?,-6.6%,-8.2%
Cc1ccc(C2C=C(c3ccc4c(c3)OCO4)Nc3ncnn32)cc1 (stereo not given),4.7%,12.1%,-48.6%,?,-4.2%,13.5%,-0.6%,-8.7%

# Remaining list, next part:
SMILES,Marburg entry inh,StopGo reporter,NS1 inh,RE007 growth inh,Cruzain noTriton,SARS PLP yeast,Cruzain inh Det,LASV entry inh
O=C(CCN1c2ccccc2Sc2ccccc21)OCC(=O)N1CCN(C(=O)c2ccco2)CC1,-1.9%,-12.2%,11.5%,-7.8%,?,-0.8%,-4.8%,9.1%
COc1ccc(C(=O)NCCC2=CCCCC2)cc1S(=O)(=O)N1CCOCC1,15.1%,10.2%,.,0.6%,.,-4.4%,.,-8.9%
Cc1ccc(S(=O)(=O)NCCC(=O)N2CCN(S(=O)(=O)c3ccccc3)CC2)cc1C,-23.6%,?,.,4.2%,.,-1.4%,.,-10.2%
COc1cccc(C(=O)Nc2ccc(NC(=O)c3cc4ccccc4o3)c(OC)c2)c1,.,-5.9%,0.7%,11.1%,.,7.1%,.,.
CCCC1CCCCC12C(=O)NC(=O)NC2=O (stereo not given),-0.9%,-15.5%,.,2.9%,.,.,.,-1.6%
CC(CC(=O)Nc1nc2ccccc2[nH]1)n1ccnc1 (stereo not given),4.9%,3.5%,.,-11.5%,.,0.5%,.,19.9%
